Screening data (PubChem)
Rango release inh = inhibition of RanGTP-driven Rango-importin beta dissociation; Biochemical FRET Rango-importin beta, RanGTP-induced dissociation; Potency, µM (highest dose often 46.1 µM), for the others: top-dose activity change, negative = inhibition; 340,000 compounds, 0.071% hits; AID 540253; active means falling FRET ratio curve, often poorly fitted, with flat reads before Ran was added; inconclusive means other falling curves, or compound fluorescence or quenching; inactive means flat or rising ratio curve;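 note: potency is the fitted concentration of half-maximal effect; % of control where 0% means no effect; nearly all actives have a fitted effect of over 45% in size; -100% = wells without RanGTP and RCC1; the record marks most hits as doubtful in a second field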
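FRET read at 45 min, room temperature: inhibitors block the CFP/YFP signal rise when RanGTP (0.6 uM Ran, 2 mM GTP, 0.2 uM RCC1) frees Rango (0.1 uM) from importin beta (0.25 uM). Pre-read after 5 min compound exposure flags interference.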
GLA inh pH 4.5 = alpha-galactosidase A (human) inhibition, pH 4.5; P06280; purified enzyme, 4-MU-alpha-Gal fluorescence, pH 4.5; activity change, negative = inhibition, % at 105 µM; 230,000 tested, under 10 active; AID 1467; inconclusive = small, poorly fitted or top-dose-only inhibition, or a rising curve; inactive = flat fitted curve, though single readings scatter; no compound was filed as active;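 note: 0% = full activity with enzyme and -100% = basal without enzyme; dose as in the result columns while the protocol names 77 µM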
Rango-impB inh = Rango-importin beta binding inhibition. AID 540263. Q14974. Rango CFP/YFP FRET sensor + importin beta, 45 min. 340,000 compounds, 0.031% hits. Potency, µM (doses to about 92.2 µM), inactives show at the top dose inhibition of complex formation; active = rising FRET ratio curve, often small or poorly fitted; inconclusive = mostly compound fluorescence or quenching in the first reads; inactive = flat curves in all reads;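 note: potency is the fitted concentration of half-maximal effect; 0% = DMSO wells and 100% = buffer wells lacking importin beta; nearly all actives have a fitted effect of over 15% in size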
Target sequence (Q14974 whole entry, looked up): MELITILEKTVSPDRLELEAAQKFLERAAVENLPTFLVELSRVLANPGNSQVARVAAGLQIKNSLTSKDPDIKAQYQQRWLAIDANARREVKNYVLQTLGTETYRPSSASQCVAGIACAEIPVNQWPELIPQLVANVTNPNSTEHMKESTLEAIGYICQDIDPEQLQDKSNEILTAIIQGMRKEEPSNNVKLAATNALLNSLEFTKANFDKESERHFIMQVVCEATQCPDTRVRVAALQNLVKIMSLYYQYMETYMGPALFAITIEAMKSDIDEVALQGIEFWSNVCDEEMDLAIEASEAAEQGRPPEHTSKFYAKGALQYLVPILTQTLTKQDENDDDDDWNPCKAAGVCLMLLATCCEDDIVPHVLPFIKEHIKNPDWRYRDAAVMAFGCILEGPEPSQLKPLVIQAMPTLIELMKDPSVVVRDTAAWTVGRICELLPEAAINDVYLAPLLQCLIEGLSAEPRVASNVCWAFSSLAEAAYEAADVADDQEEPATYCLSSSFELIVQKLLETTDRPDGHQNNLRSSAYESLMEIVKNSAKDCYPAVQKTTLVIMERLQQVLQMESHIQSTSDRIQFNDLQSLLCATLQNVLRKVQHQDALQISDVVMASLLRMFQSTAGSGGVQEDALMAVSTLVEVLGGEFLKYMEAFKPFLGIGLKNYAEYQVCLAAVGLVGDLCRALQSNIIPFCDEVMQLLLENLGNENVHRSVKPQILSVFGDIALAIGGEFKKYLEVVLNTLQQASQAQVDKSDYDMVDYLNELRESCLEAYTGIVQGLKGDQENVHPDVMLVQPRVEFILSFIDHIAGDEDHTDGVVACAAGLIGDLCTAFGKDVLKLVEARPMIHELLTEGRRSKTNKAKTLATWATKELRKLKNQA
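FRET biosensor Rango (snurportin 1 IBB between N-terminal EYFP and C-terminal Cerulean), 50 nM in PBS/1 mM DTT/0.02% Tween-20/0.1% BSA, preincubated 5 min RT with compound; 0.125 microM importin beta added, 45 min RT, CFP/YFP FRET ratio read.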
miR-21 reporter = miR-21 reporter, rising signal. 340,000 tested, under 10 active. AID 2288. Potency, µM (doses to about 38.3 µM), inactives show at the highest dose reporter change, positive = more light. HeLa miR-21 FLuc reporter, luciferase, 48 h; active = well fitted rising curve with a large enough effect; inconclusive = small, poorly fitted or top-dose-only effect; inactive = no such curve, though single readings can be large or run the other way;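 note: % of control where 0% means no effect; miR-21 action dims this reporter so a rising signal means less miR-21 action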
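Luminescence from a firefly luciferase reporter carrying a miR-21 binding site downstream, stably expressed under a CMV promoter in HeLa cells that make miR-21 endogenously, reports miRNA modulation after 48 h compound exposure up to approximately 40uM final.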
* marks the source's active call; other numbers are inactive results; ? = inconclusive; . = not tested or not shown; & = joins results of further samples.

Values run as follows: Rango release inh, GLA inh pH 4.5, Rango-impB inh, miR-21 reporter
#1 Cc1ccc(-c2nc(SCC(=O)N(C)c3c(N)n(Cc4ccccc4)c(=O)[nH]c3=O)n[nH]2)cc1
  -11%, ., 3.4%, -4%
#2 CCCNC(=O)OC[C@H]1O[C@H](CCO/N=C/C[C@@H]2C=C[C@H](OC(C)=O)[C@@H](COC(C)=O)O2)C=C[C@@H]1Oc1ccc(OC)cc1
  ., -6, ., 12%
#3 CCC(CC)c1nnc(NC(=O)c2cccc(S(=O)(=O)N3CCOCC3)c2)s1
  -4%, ., -1.2%, .
#4 COc1ccccc1N1CCN(C(=O)c2ccc3[nH]c4c(c3c2)CCCC4)CC1
  11%, -26, 0.9%, -3%
#5 CCO[C@@H]1OC(C(N)=O)=C[C@H](C2CC2)[C@H]1CCCO
  -13%, ., 2.1%, .
#6 O=C(Nc1sc(-c2ccccc2)cc1C(=O)O)c1ccccc1
  -11%, -6, ?, -36%
#7 Cc1nn2cc(-c3ccc(N)cc3)nc2s1
  -3%, 0, 1.2%, -8%
#8 COC(=O)C(Cc1ccccc1)NC(=O)c1cccc(S(=O)(=O)N(C)C)c1 (centres undefined)
  1%, 3, 3.9%, -14%
#9 CC(C)C(c1nnnn1C1CCCC1)N1CCN(c2ccccc2F)CC1 (centres undefined)
  3%, -2, 1.0%, -2%
#10 Cc1nc2cc(C(F)(F)F)ccc2n1CCNc1nc(-c2ccc(F)cc2)cs1
  -10%, ., -4.2%, -11%
#11 CCOC(=O)CSc1nnc(-c2ccc([N+](=O)[O-])cc2)o1
  3%, 5, -3.2%, 0%
#12 CCC(=O)NC(Nc1cc(C)cc(C)n1)(C(F)(F)F)C(F)(F)F
  -9%, -1, -1.1%, -5%
#13 CC(=O)Oc1ccc(-c2ccc(C(=O)Nc3cccc(S(=O)(=O)N4CCOCC4)c3)cc2)cc1
  10%, -5, 0.6%, ?
#14 NC(=O)C1CCN(c2nc(-c3ccc(F)cc3)cs2)CC1
  -6%, ., -4.2%, .
#15 O=C(NC(Cc1ccccc1)C(=O)O)/C(=C/c1ccco1)NC(=O)c1cccc([N+](=O)[O-])c1 (centres undefined)
  -19%, -4, 0.4%, 3%
#16 c1ccc(COC2CCCN(Cc3nc(-c4cccs4)no3)C2)nc1 (centres undefined)
  0%, 1, 1.4%, -9%
#17 Cc1ccc(S(=O)(=O)N2CCC(C(=O)NCCCOC(C)C)CC2)cc1
  12%, 8, -1.2%, 0%
#18 CCc1nnc2c(NCCc3ccc(OC)c(OC)c3)nc3ccccc3n12
  1%, ., -0.9%, 1%&2%
#19 CC(C)OC(=O)Cn1cnc2ccc(Br)cc2c1=O
  -8%, 3, 0.6%, -20%
#20 COC(=O)c1cccc(NC(=O)NC(=O)c2ccccc2Cl)c1
  -19%, 5, -1.5%, -40%
#21 CN(CC(=O)NCCc1ccc(F)cc1)Cc1ccccc1
  4%, ., -0.7%, -15%
#22 CCC1(C)Cc2c(C#N)c(N)n(-c3ccccc3)c(=S)c2CO1 (centres undefined)
  10%, -3, -0.3%, 3%
#23 O=C(c1cccs1)N1CCN(C(=O)C(c2ccccc2)c2ccccc2)CC1
  9%, 7, 3.2%, -2%
#24 COc1ccc(-c2csc(N3CCN(Cc4ccc5c(c4)OCO5)CC3)n2)cc1
  0%, -1, -4.0%, 3%
#25 Oc1c(Br)cc(Br)cc1C=Nc1cccc2ncccc12
  ?, ., ?, .
#26 CCOC(=O)C1CCCN(C(=O)c2sc3nc(-c4ccc(OC)cc4)cn3c2C)C1 (centres undefined)
  -17%, -4, ?, -5%
#27 Cc1ccccc1CC(=O)N1CCN(S(=O)(=O)c2cccs2)CC1
  -21%, ., -1.5%, -3%
#28 Nc1ccc(Oc2ncccn2)c(Cl)c1
  11%, ., 1.1%, -7%
#29 CCCNC(=O)c1ccccc1NS(=O)(=O)c1ccc(OC)c(OC)c1
  17%, -1, -6.7%, -1%
#30 COc1ccc(OC)c(CNc2ncc(-c3ccc(F)cc3)n2C)c1
  18%, ., 4.3%, -6%
#31 COc1ccc(CN2CC(C(=O)N3CCOCC3)CC2=O)cc1 (centres undefined)
  1%, 3, 6.1%, 2%
#32 COc1ccc(C(CNC(=O)c2c(C)nn(Cc3ccccc3)c2Cl)N2CCOCC2)cc1 (centres undefined)
  12%, ., -0.1%, .
#33 CCOc1ccc(OCC(=O)OCc2csc(CC(=O)Nc3ccccc3C)n2)cc1
  -19%, ., -2.3%, .
#34 O=[N+]([O-])c1ccc(COc2ccc(CN3CCCCC3)cc2)cc1
  ?, ., 0.4%, .
#35 CCCCNS(=O)(=O)c1cccc(S(=O)(=O)N2CCCC2)c1
  3%, 0, -1.3%, -7%
#36 O=C(NC1CCCCC1)C(c1ccccc1)N(Cc1ccco1)C(=O)Cn1cnc2ccccc21 (centres undefined)
  -9%, -2, -2.9%, 0%
#37 Cc1c(C)n(C(=O)CN2CCN(c3ccccn3)CC2)c2ccccc12
  -10%, -2, ?, -8%
#38 COc1ccccc1-c1nnn(C/C(N)=N/O)n1
  -6%, -13, -0.5%, -8%
#39 CC(=O)N=c1sc2nc3ccccc3nc2n1N(C(C)=O)C(C)=O
  -11%, -19, 1.6%, -2%
#40 O=C(NN=C1CCN(Cc2ccccc2)CC1)C(O)c1ccccc1 (centres undefined)
  ?, -14, -0.9%, -5%
#41 COc1ccc(S(=O)(=O)N2CCCCC2)cc1NS(=O)(=O)c1ccccc1F
  1%, 2, 0.8%, -1%
#42 O=C(COC(=O)c1ccc([N+](=O)[O-])cc1Cl)Nc1cccnc1Cl
  -11%, ., 7.7%, .
#43 O=c1[nH]c(N2CCOCC2)cc2ccccc12
  ?, ., ?, .
#44 COc1ccccc1NS(=O)(=O)c1cccc(NC(=O)Nc2cccc(Cl)c2)c1
  2%, 5, -1.2%, ?
#45 Cc1ccc(S(=O)(=O)N2CCCCC2)cc1NC(=O)C1CC1
  6%, ., 1.6%, .
#46 CCN1C[C@@H]2[C@@H]3C(=O)N(Cc4ccccc4)C(=O)[C@@H]3[C@](C)(C1=O)N2C(=O)c1ccc(Br)cc1
  6%, ., 7.2%, .
#47 COC(=O)c1ccc(Oc2nc(Nc3ccc(F)cc3)nc(N3CCCC3)n2)cc1
  16%, -4, 1.6%, 0%
#48 CC1=[N+](C)c2ccc3ccccc3c2C1(C)C
  -25%, 7, -6.1%, ?
#49 Cc1onc(-c2ccccc2)c1C(=O)Nc1ccc(S(=O)(=O)NC2=NCCCCC2)cc1
  -3%, -1, 1.3%, 0%
#50 CCN(CC)CCCNC(=O)c1ccc2c(Cl)c3c(nc2c1)CCCC3
  2%, -21, 1.9%, 28%&28%
#51 CCCC(=O)N1c2ccccc2[C@@H](N(C(C)=O)c2ccccc2)C[C@H]1C
  12%, -4, 0.4%, 2%
#52 O=C1NC2(CCCCC2)N=C1c1ccccc1
  4%, -3, -3.8%, -8%
#53 CCCCNC(=S)NNC(=O)c1csc(C)c1
  -24%, 0, 0.1%, -15%
#54 C#CCOC(=O)CCCNc1ccc([N+](=O)[O-])cc1[N+](=O)[O-]
  -9%, -7, -0.8%, -5%
#55 Cc1ccc(S(=O)(=O)CC(=O)Nc2nnc(C)s2)cc1
  -3%, ., 65µM*, -7%
#56 O=P(OCC1CCCO1)(OCC1CCCO1)OCC1CCCO1 (centres undefined)
  11%, ., 5.2%, .
#57 COc1cc(NC(=O)c2ccc(F)cc2)c(OC)cc1Cl
  6%, -14, 0.0%, -12%
#58 O=C1NCCCC1C(=O)Nc1ccccc1C(F)(F)F (centres undefined)
  11%, 1, 2.2%, 4%
#59 CCOC(=O)N1CCC(=NNC(=O)COc2cccc(C)c2)CC1
  1%, 6, 0.2%, -2%
#60 COc1ccccc1CNc1ncnc2c1cnn2-c1ccccc1
  8%, 2, 0.3%, -18%

Quoted at random: 2 compounds from above.
Values run as follows: Rango release inh, GLA inh pH 4.5, Rango-impB inh, miR-21 reporter
#54 C#CCOC(=O)CCCNc1ccc([N+](=O)[O-])cc1[N+](=O)[O-]
  -9%, -7, -0.8%, -5%
#44 COc1ccccc1NS(=O)(=O)c1cccc(NC(=O)Nc2cccc(Cl)c2)c1
  2%, 5, -1.2%, ?

Taken from above.
#33 @ Rango release inh = -19%
#46 @ Rango-impB inh = 7.2%

Four compounds out of the list above, sorted by the value under miR-21 reporter, falling:
entry | structure | miR-21 reporter
58 | O=C1NCCCC1C(=O)Nc1ccccc1C(F)(F)F (centres undefined) | 4%
51 | CCCC(=O)N1c2ccccc2[C@@H](N(C(C)=O)c2ccccc2)C[C@H]1C | 2%
59 | CCOC(=O)N1CCC(=NNC(=O)COc2cccc(C)c2)CC1 | -2%
52 | O=C1NC2(CCCCC2)N=C1c1ccccc1 | -8%

Additional records.
Values run as follows: Rango release inh, GLA inh pH 4.5, Rango-impB inh, miR-21 reporter
#61 O=C(NCc1cccnc1)c1ccccc1NS(=O)(=O)c1ccc(Br)cc1
  8%, ., -4.0%, .
#62 Cc1cc(C)nc(SCC(=O)c2ccc(O)c(O)c2)n1
  14%, ., -1.3%, -37%
#63 Cc1noc(C)c1COc1ccc(C(=O)N2CCC(C(N)=O)CC2)cc1
  10%, ., -0.8%, .
#64 O=C(c1cc2cc(Cl)ccc2[nH]1)N1CCN(c2ccccn2)CC1
  0%, ., -0.3%, -1%
#65 CC(O)C(=O)NCCOCCOCCNC(=O)C(C)O (centres undefined)
  2%, -8, ?, 0%
#66 CCOC(=O)CSc1nn(-c2ccccc2)c(=S)s1
  5%, 0, -4.1%, 0%
#67 COc1cc(NC(=O)C2=C(N3CCOCC3)/C(=C\c3ccc(Br)cc3)CC2)cc(OC)c1OC
  11%, -3, 1.9%, -6%
#68 CCC(=O)Nc1cccc(C2=NOC3(C2)C[C@@H](C(N)=O)N(C(=O)CC)C3)c1 (some centres undefined)
  ?, -9, -9.0%, 1%
#69 CCOc1ccccc1NC(=O)CCNS(=O)(=O)c1cccc2nsnc12
  -9%, ., 0.2%, -3%
#70 O=C(CCSc1nc2ccccc2o1)Nc1ccccc1
  15%, ., -3.2%, -1%
#71 COc1ccc(NS(=O)(=O)c2cc(NC(=O)c3cc(=O)c4ccccc4o3)ccc2OC)cc1
  -2%, -4, 2.3%, -2%
#72 CC1=C(C(=O)Nc2ccc(Cl)cc2C(=O)N2CCC(C(N)=O)CC2)SCCO1
  22%, ., -1.5%, -1%
#73 O=C1Nc2ccccc2CCC1Sc1nnc(-c2ccc(Cl)cc2)s1 (centres undefined)
  -7%, -3, -6.4%, -2%
#74 COc1ccc(S(=O)(=O)N2CCCC(C(=O)NCc3ccncc3)C2)cc1Cl (centres undefined)
  26%, -1, -3.4%, 7%
#75 COc1ccc(NC(=O)N2CCCC2C(=O)Nc2cccc(C)c2C)cc1 (centres undefined)
  25%, ., -3.0%, 8%
#76 Cc1[nH]c(C(=O)N/N=C/c2ccc(C(=O)O)cc2)c(C)c1C(=O)N/N=C/c1ccc(C(=O)O)cc1
  2%, -5, -2.0%, -4%
#77 Cc1cccc(C)c1NC(=O)COC(=O)c1cc(S(=O)(=O)Nc2ccc(Cl)cc2)ccc1O
  8%, ., -1.2%, .
#78 CCOC(=O)c1c(C)[nH]c(C)c1S(=O)(=O)NC(C)Cc1ccco1 (centres undefined)
  1%, ., 2.3%, -3%
#79 COc1ccc(NS(=O)(=O)c2c(C)[nH]c(C)c2C(=O)N2CCCCC2)cc1Cl
  -12%, ., -1.6%, 8%
#80 O=S(=O)(NCc1ccccc1)c1ccc(Cl)cc1
  2%, -4, 7.7%, -4%
#81 COc1cccc(C2C(C#N)=C(N)OC3=C2C(=O)CCC3)c1OC(=O)c1ccco1 (centres undefined)
  1%, -3, 0.9%, -3%
#82 C=CCOc1cccc(/C=C2\C(=O)N(Cc3ccc(C)cc3)C(C)=C2C(=O)OC)c1
  -4%, -3, ?, -4%
#83 O=c1[nH]c(=O)c2ccccc2o1
  14%, ., -0.2%, .
#84 Cc1cc(C(=O)NC2CCCCC2C)c2ccccc2n1 (centres undefined)
  0%, ., 1.9%, 3%
#85 N#CC1=C(N)Nc2ncnn2C1c1ccc([N+](=O)[O-])cc1 (centres undefined)
  -12%, 3, 2.5%, 0%

A portion of the library; the hit share may differ from the screen's.
